Screening results (PubChem BioAssay)
ClpP mod – qHTS Assay for Activators of ClpP; ATP-dependent Clp protease proteolytic subunit (Bacillus subtilis (strain 168)), P80244; purified B. subtilis ClpP, FRET peptide cleavage, 20 min; Potency, µM (top dose mostly 57.5 µM), inactives show top-dose activity change, negative = active; hit rate 1.9% among 340,000; active = well fitted falling curve with a large enough effect; inconclusive = small, poorly fitted or top-dose-only effect; inactive = no such curve, though single readings can be large or run the other way; note: potency is the fitted concentration of half-maximal effect; the source files actives as falling curves though it sought activators and does not explain the sign; nearly all actives have a fitted effect of over 65% in size; many hits overshoot -100%
Target sequence (P80244 whole entry, looked up): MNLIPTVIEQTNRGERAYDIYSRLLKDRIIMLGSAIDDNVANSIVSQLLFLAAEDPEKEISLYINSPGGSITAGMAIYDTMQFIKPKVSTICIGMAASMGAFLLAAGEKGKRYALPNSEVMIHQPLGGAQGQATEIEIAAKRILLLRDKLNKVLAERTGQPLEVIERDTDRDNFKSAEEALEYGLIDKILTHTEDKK
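FRET quenching reversal measured ClpP activation: 10 microg/mL B. subtilis ClpP at pH 8 with the FRET-FV decapeptide, read at 430 nm after 320 nm excitation. The 20-min minus 0-min signal was scaled between DMSO/no-enzyme wells and ADEP (5.8 microM final).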
TRPV1 PAM – HTS Assay for Compounds that Act as Potentiators of the Vanilloid Receptor 1; hit rate 0.02% among 320,000; potentiation, % at 8.33 µM; TRPV1-expressing cells, Fluo-8 calcium influx, capsaicin EC20 potentiation; host cell line not named in the record; control for the full effect not named in the record; Transient receptor potential cation channel subfamily V member 1 (Homo sapiens), Q8NER1; active means potentiation above 80%; inconclusive means 30% to 80%; inactive means below 30%; note: 0% is about no effect
Target sequence (Q8NER1 whole entry, looked up): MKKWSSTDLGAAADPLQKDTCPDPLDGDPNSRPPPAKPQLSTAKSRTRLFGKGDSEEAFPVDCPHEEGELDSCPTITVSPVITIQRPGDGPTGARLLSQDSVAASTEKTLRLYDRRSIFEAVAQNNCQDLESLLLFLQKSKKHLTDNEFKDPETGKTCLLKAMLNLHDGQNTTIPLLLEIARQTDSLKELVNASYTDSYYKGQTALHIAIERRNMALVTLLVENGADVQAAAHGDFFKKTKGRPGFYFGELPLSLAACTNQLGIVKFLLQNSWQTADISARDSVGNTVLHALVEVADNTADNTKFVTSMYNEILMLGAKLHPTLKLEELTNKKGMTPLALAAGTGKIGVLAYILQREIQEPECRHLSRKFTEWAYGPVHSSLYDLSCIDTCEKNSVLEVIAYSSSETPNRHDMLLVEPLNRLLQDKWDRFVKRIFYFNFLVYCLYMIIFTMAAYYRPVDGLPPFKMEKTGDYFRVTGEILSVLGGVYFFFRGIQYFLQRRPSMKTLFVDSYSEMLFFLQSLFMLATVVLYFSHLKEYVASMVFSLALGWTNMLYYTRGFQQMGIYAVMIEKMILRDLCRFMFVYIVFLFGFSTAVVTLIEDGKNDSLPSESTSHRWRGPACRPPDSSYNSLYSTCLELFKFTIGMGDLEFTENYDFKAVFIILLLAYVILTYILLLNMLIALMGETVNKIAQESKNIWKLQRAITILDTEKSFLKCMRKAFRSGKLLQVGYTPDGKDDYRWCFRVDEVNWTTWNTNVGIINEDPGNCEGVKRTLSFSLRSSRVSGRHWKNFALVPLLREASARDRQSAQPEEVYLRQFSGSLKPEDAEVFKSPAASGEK
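TRPV1-expressing cells were cultured overnight at 35.5C and loaded with Fluo-8 calcium dye for 40 to 90 min at room temperature. After a 10 s baseline, compound was added and calcium influx was read kinetically for 3 min (ex 480/em 520 nm).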
Sfp PPTase inh – qHTS Assay for Inhibitors of Bacillus subtilis Sfp phosphopantetheinyl transferase (PPTase) | hit rate 3.5% among 310,000 | 4'-phosphopantetheinyl transferase ffp (Bacillus subtilis), Q9F4F7 | Potency, µM, inactives show max response, negative = inhibition, hits mostly inhibitors | AID 1490, 2009 | Biochemical Sfp PPTase activity, qHTS; active = well fitted inhibition curve with a large enough effect; inconclusive = small, poorly fitted or top-dose-only effect, or another doubt; inactive = no such curve, though single readings can be large or run the other way;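 note: the enzyme is Sfp with the accession as filed and its product quenches rhodamine fluorescence; potency is the fitted concentration of half-maximal effect; 0% = enzyme reaction without inhibitor and -100% = no enzyme wells; top concentration of the series not given in the record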
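Sfp 15 nM + cpd, 15 min RT; start w/ rhodamine-CoA 5 uM, BHQ-2-YbbR 12.5 uM (final); 50 mM Hepes pH 7.6, 10 mM MgCl2, 0.01% NP-40, 0.01% BSA; read 525/598 nm at 0 and 30 min.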
gsp antagonist – qHTS for Antagonists of gsp, the Etiologic Mutation Responsible for Fibrous Dysplasia/McCune-Albright Syndrome: qHTS. AID 624288, 2012. Potency, µM (top dose mostly 76.9 µM), inactives show at the top dose activity change, negative = inhibition, usual class: inhibitors. hit rate 0.4% among 340,000. gsp-mutant cells, cAMP HTRF, 30 min; control for the full effect not named in the record; active = falling curve of any shape with a large fitted effect; inconclusive = falling curve, mostly with a smaller effect; inactive = flat or rising curve; cell line not stated here;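 note: intracellular cAMP measured with PDE inhibitor Ro 20-1724 present during compound exposure; potency is the fitted concentration of half-maximal effect; % is set by controls: 0 for no effect and ±100 for the full control effect; nearly all actives have a fitted effect of over 65% in size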
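Measurement of cellular cAMP by homogeneous time-resolved fluorescence following a 30 min compound exposure at 37C. The PDE inhibitor […] was present throughout; the assay buffer was DPBS with 0.05% BSA and 0.005% Tween 20.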
gsp agonist – qHTS for Agonist of gsp, the Etiologic Mutation Responsible for Fibrous Dysplasia/McCune-Albright Syndrome: qHTS; gsp mutant cells, cAMP HTRF, 30 min; control for the full effect not named in the record; Potency, µM (titrated, usually from 76.9 µM), inactives show at the highest dose activation (cAMP increase), hits mostly activators; hit rate 0.13% among 340,000; active = well fitted activation curve with a large enough effect; inconclusive = small, poorly fitted or top-dose-only effect, or another doubt; inactive = no such curve, though single readings can be large or run the other way; cell line not stated here;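 note: phosphodiesterase inhibitor Ro 20-1724 added with compounds to block cAMP breakdown; potency is the fitted concentration of half-maximal effect; nearly all actives have a fitted effect of over 60% in size; about a fifth of the inactives were tested at one dose only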
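Cells stably selected in G418 were plated at 2000/well, grown 16-24 hr, then given compounds in DMSO with the PDE inhibitor […] (300 uM solution added) for 30 min at 37C; cAMP was read by HTRF.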
Menin-MLL FL inh – qHTS Assay for Inhibitors Targeting the Menin-MLL Interaction in MLL Related Leukemias: Competition With Fluorescein Labeled MLL-derived Peptide; Fluorescence polarization, fluorescein-MLL peptide displacement from menin; FP activity change, % at 61.4 µM; 290,000 tested, under 10 active; AID 1766, 2009; inconclusive = falling polarisation curve, or a change in total fluorescence; inactive = total fluorescence flat and polarisation flat or rising; no compound was filed as active; the % refers to the polarisation; negative = inhibition;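 note: % of control where 0% means no effect; inhibitors lower the polarisation; unlabelled MLL peptide was the positive control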
CtBP-E1A inh – qHTS Assay for Inhibitors of the CtBP/E1A Interaction; hit rate 0.49% among 340,000; activity change, % (no concentration beside the values); CtBP / adenovirus E1A interaction (AlphaScreen); AID 651724, 2012; AlphaScreen GST-E1A/His-CtBP binding, 1536-well; stronger effect = lower value; control for the full effect not named in the record; in the data active means activity change below about -65%; inconclusive means about -30% to -65%; inactive means above about -30%; note: % is set by controls: 0 for no effect and ±100 for the full control effect; compound concentration not given in the record
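Homogeneous bead-based format: GST-tagged E1A captured on glutathione donor beads, His-tagged CtBP on nickel acceptor beads; compounds precede bead addition by 2 h at 37 °C.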
An asterisk follows results filed as active; ? = inconclusive; / = not tested or not shown; [ ] = another dose, or the depositor's remark. Random draw from the library (roughly 5.3% active in at least one column).

SMILES | ClpP mod | TRPV1 PAM | Sfp PPTase inh | gsp antagonist | gsp agonist | Menin-MLL FL inh | CtBP-E1A inh
COc1ccc(S(=O)(=O)N[C@H](C(=O)N2CC[C@@]3(O)CCCC[C@H]3C2)c2ccccc2)cc1 | 1.3% | 5 | 12% | -4% | -2% | 5.6 | -9
COc1ccc(-c2c(C)nn3c(N4CCN(Cc5ccccc5)CC4)cc(C)nc23)cc1OC | 0.7% | 2 | ? | 5% | ? | -4.6 | 4
CC(C)=CCOc1ccc([C@@H]2COc3c(ccc4c3C=CC(C)(C)O4)C2)c(O)c1 | -1.7% | / | / | -16% | / | / | -7
CCCCn1c(N)c(N(CC(C)C)C(=O)c2ccc([N+](=O)[O-])o2)c(=O)[nH]c1=O | 0.9% | 2 | / | 7% | 12% | / | /
Cc1ccnc(NS(=O)(=O)c2ccc(NC(=O)c3oc4ccc(F)cc4c3C)cc2)n1 | -1.3% | 4 | 5% | 22µM* | 23% | / | -13
Cc1cc(NC(=O)CSc2nc3c([nH]c4ccccc43)c(=O)n2-c2cccc(C(F)(F)F)c2)no1 | 28µM* | 27 | 5% | 12% | -22% | 2.4 | 0
O=C(Cn1c(C(F)(F)F)nc2ccccc21)NCCN1CCCC1 | 0.2% | 0 | 2% | 11% | -4% | -12 | -22
O=S(=O)(c1cccc2nsnc12)N1CCN(C/C=C\c2ccccc2)CC1 | 1.1% | -8 | 1% | -11% | -9% | -1.0 | -5
O=C(CNCc1ccccc1)Nc1cccc(Cl)c1Cl | -2.6% | -19 | ? | 5% | -31%[inhibitor] | 1.4 | 0
Cc1ccc(S(=O)(=O)N(C)c2ccc(OC(=O)c3cccs3)cc2)cc1 | -0.1% | / | / | 0% | -21%[15.4 µM] | / | -5
Cc1cc(C)c(NC(=O)CCCN2CCCC2)c(C)c1 | / | 8 | 2% | 8% | 19% | -0.3 | 3
CC(C)CC(c1nnnn1C1CCCCC1)N1CCN(c2ncccn2)CC1 (stereo not given) | -2.0% | -6 | 2% | 6% | 3% | 0.0 | 8

Single records, as listed above.
CC(C)CC(c1nnnn1C1CCCCC1)N1CCN(c2ncccn2)CC1 (stereo not given) is listed as ClpP mod = -2.0%; TRPV1 PAM = -6; Sfp PPTase inh = 2%; gsp antagonist = 6%; gsp agonist = 3%; Menin-MLL FL inh = 0.0; CtBP-E1A inh = 8
CC(C)=CCOc1ccc([C@@H]2COc3c(ccc4c3C=CC(C)(C)O4)C2)c(O)c1 is listed as ClpP mod = -1.7%; TRPV1 PAM = /; Sfp PPTase inh = /; gsp antagonist = -16%; gsp agonist = /; Menin-MLL FL inh = /; CtBP-E1A inh = -7

Remaining list, next part:
SMILES | ClpP mod | TRPV1 PAM | Sfp PPTase inh | gsp antagonist | gsp agonist | Menin-MLL FL inh | CtBP-E1A inh
O=[N+]([O-])c1ccc(N2CCCCC2)nc1N1CCCCC1 | / | -6 | -11% | -10% | -11%[15.4 µM] | 1.9 | ?
CCC(Sc1nc2ncccc2[nH]1)C(=O)NCCc1ccccc1 (stereo not given) | -5.8% | -6 | 1% | 5% | 1% | -2.9 | 5
Cc1onc(C(=O)N2CCC(Cc3ccccc3)CC2)c1[N+](=O)[O-] | 0.5% | -27 | 8% | -7% | ? | 5.9 | -6
Cc1ccc(C(=O)N/C(=C\c2ccco2)C(=O)NCCCn2ccnc2)cc1C | -2.3% | 0 | 4% | -5% | -3% | -2.2 | 7
CCOc1ncccc1C(=O)OCC(=O)Nc1ccc(C(C)C)cc1 | / | 6 | 6% | 6% | ? | 0.0 | -11
C[C@@H]1[C@H](c2ccccc2)Oc2ccc(Cl)cc2S(=O)(=O)N1CC1CCCN1C(=O)OC(C)(C)C (stereo not given in full) | 0.8% | / | / | 3% | / | / | 0
Cc1ccc(CC(=O)N(C)CC(=O)Nc2ccc(N3CCOCC3)cc2)cc1C | -1.9% | 23 | / | 4% | -28% | / | -12
Oc1ccccc1C1=Nc2ccccc2N=C(c2cccs2)C1 | 0.0% | -7 | 0% | -2% | 14% | -2.4 | 28
CCOc1nc(Nc2ccc(OC)cc2)nc(N2CCOCC2)n1 | 0.1% | -9 | 6% | 9% | 26% | -4.4 | -1
C=CCOc1ccc(C2NC(=S)NC3=C2CCc2ccccc23)cc1 (stereo not given) | / | 5 | -2% | -3% | 11% | 4.3 | -10
COC(=O)C(Nc1ccccc1Cl)(c1cc(C)c(O)c(C)c1)C(F)(F)F (stereo not given) | 0.6% | -8 | 20% | -8% | ? | 11 | 6
NNC(=O)c1cccc(Cn2cc(Br)c([N+](=O)[O-])n2)c1 | 0.8% | -13 | -12% | -1% | -33%[inhibitor] | 2.9 | -3
FC(F)(F)c1cccc(-n2cccc2/C=N/n2cnnc2)c1 | 0.2% | 12 | 8% | -2% | -2% | 0.1 | -2
CCn1cc(C=C2C(=O)c3ccccc3C2=O)c2ccccc21 | / | 1 | -3% | -29% | -4% | ? | 1
CC(C)C(=O)OCC(=O)Nc1ccc2c(c1)CCC2 | -1.3% | -21 | -4% | 2% | -20% | 4.3 | -2
Cc1cccc(OCC(=O)Nc2cccc(O)c2)c1 | -0.9% | -16 | 6% | -8% | 3% | 1.8 | -1
COc1ccccc1C(=O)NNC(=S)NC(=O)c1ccco1 | -0.8% | 4 | -6% | 8% | ? | -1.7 | -11
COCCN1Cc2cccc(C(=O)Nc3cc(OC)ccc3OC)c2C1=O | 0.9% | 6 | -3% | 1% | -4%[15.4 µM] | -0.1 | 10
Cc1ncc(CN2CCN(C(C)C)C(CCO)C2)s1 (stereo not given) | / | 5 | 7% | 8% | ? | 2.0 | -15
CCN1CCN(C(=O)c2cc(S(=O)(=O)Nc3ccc(S(C)(=O)=O)cc3)ccc2Cl)CC1 | / | -34 | 15% | -3% | -3%[15.4 µM] | -7.4 | -2
C/C(CCc1ccccc1)=N\NC(=O)c1ccccc1 | / | -7 | 3% | 1% | -9%[15.4 µM] | 2.5 | 0
O=C(NC1(C(=O)NC2CCCC2)CCCCC1)c1ccc2c(c1)OCO2 | -1.9% | 1 | 19% | 4% | -9% | -0.2 | 9
CCOC(=O)C(C)Oc1cccc2c(=O)n(CC(=O)N3CCc4ccccc43)ccc12 (stereo not given) | -25% | 10 | 5% | 8% | -61%[inhibitor] | 1.8 | -1
COc1cccc(CN2C[C@]34C=C[C@@H](C[C@@H]3S2(=O)=O)O4)c1 | -1.4% | -2 | 89µM* | 12% | -29% | -0.1 | /
COc1ccc(-c2ccc(C#N)c(OC(=O)c3c(Cl)cccc3Cl)n2)cc1 | -1.9% | 12 | -1% | 3% | 1% | 2.9 | 25
O=C(O)c1ccccc1C(=O)OC1CC2CCC1C2 (stereo not given) | 1.3% | / | / | / | -4% | / | -12
Cc1cccc(/C=N/NC(=O)c2cc(Br)ccc2OCc2ccccc2)n1 | / | -11 | -18% | 1% | ? | -4.1 | 9
CCCCN1CCC(CN2C(=O)C(=O)NC[C@@H]2Cc2ccccc2)CC1 | 0.5% | / | / | 5% | / | / | -14
Nc1ccc(C(=O)OCc2nc3ccccc3s2)cc1 | / | -10 | 4% | 1% | 0% | -1.8 | 1
CCOc1cc(C#N)c(NC(=O)c2cccnc2)cc1OCC | ? | / | 2% | 8% | -42%[inhibitor] | 2.2 | 4
O=C(O)CN1C(=O)/C(=C2\C(=O)N(Cc3ccccc3Cl)c3ccccc32)SC1=S | / | 3 | -5% | 9% | -1%[15.4 µM] | ? | -11
Cc1[nH]n(-c2ccccc2)c(=O)c1C1(C(F)(F)F)C(=O)N(c2ccccc2)C2=C1C(=O)CC(C)(C)C2 (stereo not given) | -1.7% | 10 | 13% | -19% | -38%[inhibitor] | 3.8 | -15
CCOC(=O)Cc1csc(SCc2nc3ccccc3c(=O)[nH]2)n1 | 0.2% | -1 | -1% | 16% | 10% | 0.8 | 11
COc1cc(OC)cc(C(=O)NCC2CCCN(C(=O)c3csc(C(C)C)n3)C2)c1 (stereo not given) | -6.1% | 8 | 4% | -3% | -2% | / | -10
O=C(CSc1nnc(-c2cccnc2)n1CCN1CCCCC1)Nc1cccc(Cl)c1 | 16µM* | 1 | -14% | 1% | 0% | -4.5 | 0
COCCNC(=O)C1CC2Cn3c(nc4cc(Cl)c(Cl)cc43)C2N1C (stereo not given) | -0.1% | -1 | -9% | -4% | / | 11 | 1
Cc1cccc(NC(=O)c2nc[nH]c2C(=O)N[C@H](C)c2ccccc2)c1 | -1.1% | -4 | / | -24% | / | / | 5
CCN1C[C@@H]2[C@@H]3C(=O)N(Cc4ccccc4)C(=O)[C@@H]3[C@](Cc3ccccc3)(C1=O)N2C(=O)c1ccc(Cl)c(Cl)c1 | -1.7% | / | / | -21% | -14% | / | 0
OCCCn1c(C(CO)Nc2nc(-c3ccc(Cl)cc3)cs2)nc2ccccc21 (stereo not given) | -2.1% | / | / | -11% | / | / | -8
CCOC(=O)C1=C(O)/C(=C/c2cn(CC(=O)NCC3CCCO3)c3ccccc23)SC1=Nc1ccc(C)cc1 (stereo not given) | -1.1% | / | / | -23% | 2% | / | -9
CC(C)CN(C(=O)COC(=O)CNC(=O)c1ccccc1F)C1CCS(=O)(=O)C1 (stereo not given) | -1.3% | 1 | 0% | 16% | 46% | 6.0 | -9
Cc1ccc(C(=O)Nc2ccc(Cl)cn2)cc1S(=O)(=O)N1CCOCC1 | 0.9% | -11 | -7% | -13% | -1% | 1.8 | -15
COC(=O)C1CC(=O)N(Cc2ccccc2)C1 (stereo not given) | -2.1% | -21 | -6% | 0% | -26% | -2.9 | /
